Screening results as filed in PubChem BioAssay.
2A firefly = FMDV 2A StopGo reporter, firefly signal. HEK cells with a luciferase reporter of 2A StopGo recoding. Potency, µM (top dose mostly 57.5 µM), for the others: at the highest dose signal change, negative = less light. 120,000 tested, 0.23% active. AID 1745856; active = well fitted falling curve with a large enough effect; inconclusive = small, poorly fitted or top-dose-only effect; inactive = no such curve, though single readings can be large or run the other way; also: nearly all actives have a fitted effect of over 60% in size; overnight with compound
StopGo RLuc = lowers the Renilla signal of an FMDV 2A StopGo reporter | HEK cells with a luciferase reporter of 2A StopGo recoding | Potency, µM (titrated, usually from 57.5 µM), without a hit: at the top dose signal change, negative = less light | 120,000 tested, 0.32% active | AID 1745857; active means well fitted falling curve with a large enough effect; inconclusive means small, poorly fitted or top-dose-only effect; inactive means no such curve, though single readings can be large or run the other way; also: nearly all actives have a fitted effect of over 55% in size; overnight with compound
An asterisk follows results filed as active; u = inconclusive; & = joins results of further samples; [ ] = remark or other dose. % is scaled to controls: 0 for no effect and ±100 for the full control effect; potency is read from the fitted curve at half-maximal effect.

compound	StopGo RLuc	2A firefly
O=c1oc2ccccc2n1CCCOc1ccccc1Cl	2%	199%[activator]
CCSc1ncc(Cl)c(C(=O)Nc2nc3ccc(Cl)cc3s2)n1	-14%	20%
COc1cc(C(=O)NCc2c(C)nn(Cc3ccccc3)c2C)cc(Cl)c1OC	12%	-6%
CCOC(=O)C1CCN(C(=O)Cn2ncc3c4ccccc4n(C)c3c2=O)CC1	23%	36%[activator]
CCCNC(=O)Nc1c(NCCC)c2ccccc2oc1=O	1%	-1%
O=C(COc1ncnc2ccc(Br)cc12)NC(c1ccccc1)c1ccccc1	-4%	-11%
Cc1ccc(NC(=O)Cn2c(=O)n(Cc3nc(-c4ccccc4)no3)c(=O)c3cc4c(cc32)OCO4)cc1F	-6%	-7%
O=C(NCc1cnn(-c2ccccc2)c1)C1CCN(S(=O)(=O)c2ccc(F)cc2)CC1	-1%	6%
COCCNC(=O)CN(C)C(=O)c1cc(-c2ccc(Cl)cc2)nc2ccccc12	4%	3%
CCOC(=O)/C(C#N)=C/c1ccsc1C	15%	103%[activator]
Cc1ccc(CNC(=O)CCCc2nc3ccccc3o2)cc1	-6%	22%
Cc1cc2oc(C(=O)Nc3cccc(-c4nc5ccccc5o4)c3)c(C)c2cc1Cl	-19%	-15%
COc1cc(C(=O)C(C#N)C(=O)CC(C)(C)C)cc(Cl)c1OC (stereo not given)	-25%	19%
CCC(C)(C(=O)NC1CCCC1)N(Cc1cccs1)C(=O)c1ccc2c(c1)OCO2 (stereo not given)	13%	-8%
CCc1cccc(NC(=O)CCc2nc3cccnc3n2Cc2ccc(OC)cc2)c1	-7%	13%
Cc1ccc(OCCNC(=O)c2cc3ccccc3n2C)cc1	-9%	12%
CC(C)C(Nc1ccc([N+](=O)[O-])cn1)c1ccc(Cl)cc1 (stereo not given)	11%	-25%
CCc1ccccc1NC(=O)Cn1nnc(C(=O)OC)c1C(=O)OC	23%	10%
CN(C)CCCNc1nc(-c2ccncc2)nc2ccccc12	18%	35%[activator]
CCc1ccc(NC(=O)CSc2nc3ccccc3c(=O)n2CCC(=O)NC2CCCCC2)cc1	-8%	-2%
O=C(COC(=O)c1ccc(S(=O)(=O)N2CCCCCC2)cc1)NCc1ccccc1	5%	7%
CCCNc1c(NC(=O)NCC2CCC(C(=O)OCC)CC2)c(=O)oc2ccccc12 (stereo not given)	-1%	5%
COc1ccccc1N1CCN(C(=O)c2cnc(N3CCOCC3)c3ccccc23)CC1	39%[activator]	-8%
CCCCC1CCNC1 (stereo not given)	0%	17%
COc1ccccc1C(=O)N(Cc1ccco1)Cc1ccccc1F	49%[activator]	-11%

Compound profiles (already shown).
`COc1ccccc1N1CCN(C(=O)c2cnc(N3CCOCC3)c3ccccc23)CC1` is entered as StopGo RLuc = 39%[activator]; 2A firefly = -8%
`CCCCC1CCNC1` (stereo not given) is entered as StopGo RLuc = 0%; 2A firefly = 17%

Additional entries follow.
compound	StopGo RLuc	2A firefly
CCCOc1c(I)cc(/C=C(\C#N)C(=O)OCC)cc1OC	3%	0%
CN(C)C(CSS(=O)(=O)c1ccccc1)CSS(=O)(=O)c1ccccc1	4%	2%
N#Cc1cc([N+](=O)[O-])ccc1Nc1ccc2c(c1)CCC2	17%	197%[activator]
COc1cc(OC)c(OC)cc1/C=C/c1nc2cc3ccccc3cc2c(=O)n1-c1ccc(F)c(Cl)c1	u	u
Cc1ccc(C)c(N2CCN(C(=O)c3ccc4c(Cl)c5c(nc4c3)CCCC5)CC2)c1	-5%	-16%
CN1CCN(C(=O)CCNc2nc(Cl)nc3nc[nH]c23)CC1	6%	12%
COc1ccc(Cl)cc1NC(=O)c1nc2ccccc2nc1N1CCCCC1	-1%	-13%
CC(=O)c1cc(C(=O)Nc2cccc(C)c2)c2ccccn12	45%[activator]	90%[activator]
Cc1cccc(OCCNC(=O)Cc2n[nH]c(=O)c3ccccc23)c1	-11%	-12%
Cc1nn(C(=O)c2ccccc2)c(C)c1S(=O)(=O)N1CCCCCC1	-7%	-2%
Cc1nc2ccccc2nc1SCC(=O)N1CCCC1	-9%	3%
COc1cccc(N2CC(NC(=O)Nc3nc4c(C)cccc4s3)CC2=O)c1 (stereo not given)	-10%	-12%
CCCc1ccc(S(=O)(=O)N2CCN(CC(=O)NC(C)c3cccs3)CC2)cc1 (stereo not given)	4%	-11%
Cc1cnc(NC(=O)C(C)(C)Oc2ccc(Cl)cc2Cl)s1	16%	0%
CCN(CC)S(=O)(=O)c1ccc(C)c(N=CN(C)C)c1	15%	-4%
CCOc1ccc(NC(=O)Cn2cc(S(=O)(=O)c3ccc(C)cc3)c(=O)c3cc(F)ccc32)cc1	-5%	-14%
COc1cc(C2CC(=O)Nc3c2c(C)nn3-c2nc(C)cc(C)n2)cc(OC)c1O (stereo not given)	-8%	-4%
COC(=O)CC(C(=O)OC)N1CCCC1 (stereo not given)	0%	158%[activator]
N#C/C(=C/c1ccccc1OCc1cccc(C(F)(F)F)c1)C(=O)NCc1ccc(F)cc1	-9%[1.06 µM]	-5%
CCCc1cc(=O)[nH]c(SC(C)C(=O)NC)n1 (stereo not given)	41%[activator]	0%
O=C(NCCSc1c(-c2ccccc2)[nH]c2ccccc12)c1ccc(S(=O)(=O)N2CCOCC2)cc1	-10%	u
COc1ccc(CNC(=O)CSc2n[nH]c(-c3ccc(F)cc3)n2)cc1	1%	3%
COc1cccc(CNS(=O)(=O)c2ccc3c(c2)CC(C)N3C(=O)C2CCC2)c1 (stereo not given)	u	u
CCc1ccccc1Nc1nn2c(=O)c3ccc(C(=O)NC4CCC(C)CC4)cc3nc2s1 (stereo not given)	-22%	u
O=C(/C=C\c1ccc2c(c1)OCO2)NC1CC(=O)N(c2cccc(F)c2)C1 (stereo not given)	4%	44%[activator]
CCC(=O)N1CCc2cc(S(=O)(=O)NC(CC(C)C)C(=O)NCc3ccc(C)cc3)ccc21 (stereo not given)	-1%	-12%
N#C/C(=C/c1cccc2c1OCCCO2)c1nc2cc(C(F)(F)F)ccc2s1	0%	-3%
Cc1ccc(C)c(N2CCN(C(=O)CCc3nnc4n(C)c(=O)c5ccccc5n34)CC2)c1	-14%	-5%
O=C(NC1CCCCC1)c1ccc2c(c1)N(Cc1cccc(Cl)c1)C(=O)c1ccccc1S2=O (stereo not given)	-3%	-8%
CCCN(CCC)S(=O)(=O)c1ccc(C(=O)N2CCn3c4c(c5cc(C)ccc53)CCCC42)cc1 (stereo not given)	-14%	-11%
CCCC(C)(C)NC(=O)CCc1ccc(OC)c(OC)c1OC	8%	-2%
CC(NC(=O)OCc1ccccc1)C(=O)O (stereo not given)	6%	5%
O=C(O)CCCC(=O)NCCN1CCCC1	14%	36%[activator]
Cc1ccc(-c2nc3ccccc3c(C(=O)O)c2C)s1	-5%	31%[activator]
Cc1ccc(C(=O)Nc2cc(S(=O)(=O)N3CCCCC3)ccc2Oc2ccccc2)cn1	37%[activator]	-10%
C=CCN1[C@H](C)COc2cc(N3CCCC3)ccc2S1(=O)=O	14%	8%
Cn1cc(S(=O)(=O)N2CCCC(C(=O)Nc3nn(Cc4ccccc4Cl)cc3Cl)C2)cn1 (stereo not given)	-10%	-9%
O=C(CCc1c[nH]c2ccccc12)NCc1ccco1	-1%	7%
Ic1nc[nH]c1I	6%	6%
Cc1ccccc1-c1nn2c(=O)cc(CN3CCN(S(=O)(=O)c4ccc(Cl)cc4)CC3)nc2s1	-11%	13%
CSCC[C@H](NC(=O)[C@H](C)n1nnc2ccccc2c1=O)C(=O)O	-10%	-1%
CN(C)c1ccc(NC(=O)Cn2cc(S(=O)(=O)Cc3cccc(Cl)c3)c3ccccc32)cc1	52%[activator]	26%
Cc1ccc(C)c(-c2cc(C(=O)O)c3cccc(C)c3n2)c1	-6%	7%
CC(C)CNC(=O)COC(=O)c1cc(=O)c2cc(Cl)ccc2o1	-15%	-8%
CCOC(=O)c1cc(-c2ccccc2)n(-c2cccc(C(=O)Nc3ccc(OC)cc3)c2)c1C	-8%	31%[activator]
CC(=O)c1ccc(NC(=O)CSc2nc(-c3ccccc3F)nc3c2c(=O)n(C)c(=O)n3C)cc1	-17%	-20%
O=C(Nc1ccc(CC23CC4CC(CC(C4)C2)C3)cc1)c1ccc(Cl)cc1Cl	12%	14%
CCOC(=O)N1CCc2c(sc3c2c(=O)n(-c2ccc(Cl)cc2)c(=O)n3CC(=O)Nc2ccccc2)C1	-17%	-19%
CCn1nc(-c2ccccc2)c(-c2ccccc2)c(C(=O)Nc2ccccc2C(N)=O)c1=O	70%[activator]	-24%
N=c1n(CCO)c2ccccc2n1CCOc1ccc(F)cc1	3%	-7%

Continuation.
compound	StopGo RLuc	2A firefly
CCC(Oc1ccccc1F)C(=O)Nc1ccc(OC)c2ncccc12 (stereo not given)	-39%	-29%
O=C(NCCc1ccccc1)C1CCN(c2ncnc3c2nc2n3CCCCC2)CC1	-2%	3%
CCN(CC)S(=O)(=O)c1ccc(OC(C)C)c(NC(=O)c2ccc(OC(F)F)c(OC)c2)c1	-6%	-14%
O=C(CCc1cccc(Cl)c1Cl)NC1CCN(C2CC2)C1 (stereo not given)	-11%	-10%
COc1ccc(CCC(=O)NC(C)c2cccs2)cc1OC (stereo not given)	2%	-11%
COc1ccc(NC(=O)CCc2nnc3n(CC(C)C)c(=O)c4ccccc4n23)cc1	-5%	-8%
Cc1c(CC(=O)NCCCn2ccnc2)c(=O)oc2c(C)c(O)ccc12	4%	12%
Cc1ccc(Cl)cc1N(C)C(=O)C1CCCN(c2ncnc3onc(-c4ccc(F)cc4)c23)C1 (stereo not given)	3%	2%
Cc1ccc(S(=O)(=O)c2nc(-c3ccccc3)oc2SCC(=O)NC2CCCCC2)cc1	-2%	1%
COc1ccc(CCN(C)C(=O)C2CCCN(C3CCN(Cc4ccccc4)CC3)C2)cc1OC (stereo not given)	5%	7%
CCc1oc2ccccc2c1/C=N/O	1%	0%
COc1ccc(NC(=O)c2cnc3sc(N4CCOCC4)nn3c2=O)c(OC)c1	-7%	0%
COCCNc1oc(-c2ccc(C)cc2)nc1C#N	64%[activator]	58%[activator]
CCOc1cccc(C(=O)Nc2ccc3oc(-c4ccncc4)nc3c2)c1	9%&14%	16%&0%
O=C(O)C/C(=C/c1ccsc1)c1nc2ccccc2s1	8%	0%
CCOc1ccc(CCNC(=O)Cn2c(-c3cccs3)cc3ccccc32)cc1	-11%	-7%
COc1cc(NC(=O)CN2C(=O)COc3ccc(S(=O)(=O)NC4CCCC4)cc32)cc(OC)c1	43%[activator]	-2%
CCc1ccc(C(=O)Oc2ccc(-c3ccccc3)cc2)cc1	21%	10%
Cc1ccc(CSc2ncc(Cl)c(C(=O)Nc3nnc(C)s3)n2)cc1	-9%	-14%
COc1ccc(C2SCC(=O)Nc3c2c(C)nn3C)cc1OC (stereo not given)	-12%	8%
COc1ccc(-n2nc(C(=O)Nc3cc(C)ccn3)c3c4ccccc4n(C)c3c2=O)cc1	-8%	-10%
COc1ccc(/C=C/C(=O)OCCN(C)C(C)C)cc1	-9%[1.06 µM]	u
COc1ccc(C(c2cc(C)sc2NC(=O)c2ccco2)N2CCC(C)CC2)cc1OC (stereo not given)	8%	75%[activator]
Cc1ccc(Sc2c(C)nn(-c3ccccc3)c2OC(=O)CC(C)C)cc1	-8%	0%
Cc1cc(O)c2ccccc2c1O	12%	4%[11.5 µM]

Some of the entries so far, with values under each structure.
Fields – StopGo RLuc, 2A firefly
Cc1ccc(S(=O)(=O)c2nc(-c3ccccc3)oc2SCC(=O)NC2CCCCC2)cc1
    -2%, 1%
O=C(O)C/C(=C/c1ccsc1)c1nc2ccccc2s1
    8%, 0%
Cc1ccc(CSc2ncc(Cl)c(C(=O)Nc3nnc(C)s3)n2)cc1
    -9%, -14%

(cont.)
compound	StopGo RLuc	2A firefly
Cc1cc(S(=O)(=O)Nc2c(NC3CCCCC3)c3ccccc3oc2=O)ccc1F	17%	-12%
Cc1ccc(C(=O)COC(=O)c2cc(-c3ccc(Cl)cc3)nc3ccccc23)cc1	-9%	-13%
COc1cc(C=O)c(Br)cc1OC(C)C	13%	9%
CCOc1ccc(-c2cc(C(=O)NCCc3ccc(C)cc3)c3ccccc3n2)cc1	-4%	11%
N#C/C(=C/c1ccc(-c2ccccc2F)o1)c1nc2ccccc2[nH]1	76%[activator]	0%
CCc1ccc(N2CC(C(=O)OCC(=O)Nc3ccc(Cl)c(Cl)c3)CC2=O)cc1 (stereo not given)	-11%	-2%
COc1ccc(CNC(=O)C2CCN(C(=O)N3CCOc4ccc(C)cc43)CC2)cc1	52%[activator]	16%
O=C(c1ccccc1)c1ccc2nc(Nc3cc(Cl)ccc3O)c3nncn3c2c1	-25%	3%
Cc1nc2ccn(Cc3cccs3)c(=O)c2cc1C(=O)N1CCN(c2ccccc2)CC1	-8%	-23%
COc1ccc(N2CCN(CCCNC(=O)c3c(C)nn(-c4ccc(F)cc4)c3-n3cccc3)CC2)cc1	-8%	-1%
C#CCN1CCC(C(=O)NCCNC(=O)C2CC2)CC1	-3%	-13%
